Bioassay records deposited in PubChem BioAssay by National Center for Advancing Translational Sciences (NCATS).
hNpr1 antagonist = antagonists of human natriuretic peptide receptor Npr1; AID 1347048; 76,000 tested, 1.6% active; Potency, µM (highest dose often 46.3 µM), for inactives: top-dose activity change, negative = inhibition, actives largely listed as inhibitors; HEK293 hNpr1 GloSensor cGMP, ANP-stimulated luminescence; P16066; active = well fitted inhibition curve with a large enough effect; inconclusive = small, poorly fitted or top-dose-only effect; inactive = no such curve, though single readings can be large or run the other way;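 also: nearly all actives have a fitted effect of over 60% in size; nearly all hits also lower the signal before the agonist is added; a reference antagonist and vehicle were the controls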
Target sequence (P16066 whole entry, looked up): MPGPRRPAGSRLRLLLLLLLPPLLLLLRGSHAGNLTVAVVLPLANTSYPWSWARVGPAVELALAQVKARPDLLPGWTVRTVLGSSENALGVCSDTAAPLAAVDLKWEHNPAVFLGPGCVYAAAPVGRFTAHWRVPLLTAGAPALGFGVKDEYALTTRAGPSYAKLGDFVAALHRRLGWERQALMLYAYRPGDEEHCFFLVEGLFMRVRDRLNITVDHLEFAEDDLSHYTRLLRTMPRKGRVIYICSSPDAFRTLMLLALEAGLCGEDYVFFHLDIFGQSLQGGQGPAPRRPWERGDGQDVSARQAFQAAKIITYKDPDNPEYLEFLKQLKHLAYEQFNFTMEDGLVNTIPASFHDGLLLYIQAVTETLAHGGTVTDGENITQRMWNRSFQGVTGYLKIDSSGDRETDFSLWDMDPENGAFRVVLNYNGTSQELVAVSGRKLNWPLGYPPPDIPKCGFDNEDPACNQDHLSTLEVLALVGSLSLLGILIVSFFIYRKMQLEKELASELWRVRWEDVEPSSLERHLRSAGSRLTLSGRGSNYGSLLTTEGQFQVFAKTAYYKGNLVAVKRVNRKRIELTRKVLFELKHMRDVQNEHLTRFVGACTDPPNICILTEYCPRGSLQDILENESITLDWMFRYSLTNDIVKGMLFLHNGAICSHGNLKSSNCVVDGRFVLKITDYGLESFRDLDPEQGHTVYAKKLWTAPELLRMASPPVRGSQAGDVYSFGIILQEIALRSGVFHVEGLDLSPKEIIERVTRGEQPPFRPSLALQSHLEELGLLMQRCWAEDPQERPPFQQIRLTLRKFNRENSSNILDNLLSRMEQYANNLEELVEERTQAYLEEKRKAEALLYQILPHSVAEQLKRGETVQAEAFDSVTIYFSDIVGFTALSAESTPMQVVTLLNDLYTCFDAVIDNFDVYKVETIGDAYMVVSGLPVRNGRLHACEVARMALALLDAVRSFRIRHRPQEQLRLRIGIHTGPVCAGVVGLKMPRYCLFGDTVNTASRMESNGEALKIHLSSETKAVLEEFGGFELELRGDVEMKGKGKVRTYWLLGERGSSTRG
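HEK293 cells stably expressing human Npr1 and cGMP GloSensor pGS-40F, loaded 2 h with 2% GloSensor reagent, given compound 30 min at room temperature. Luminescence read before and 20 min after 0.1 nM hNppA.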
Active calls of the source: *; ? = inconclusive; [ ] = another dose, or the depositor's remark. % is scaled to controls: 0 for no effect and ±100 for the full control effect; potency is read from the fitted curve at half-maximal effect. These rows are one share of the data (hit frequency here may not be typical).

Structure	hNpr1 antagonist
O=C([C@H]1CCCO1)N1CCC(c2cc(-c3ccccc3Cl)n[nH]2)CC1	-1.4%
COc1cccc(C2Cn3nnc(-c4nc(-c5ccc(Br)cc5)no4)c3CO2)c1 (centres undefined)	-1.8%
CCS(=O)(=O)N1CCC(Cc2nncn2C)C1 (centres undefined)	0.5%
CC(C)OCCCNC(=O)Cn1nc2c(cc1=O)CCCCC2	6.4%
CCNC(=O)N1CCOc2ccc(CN3CCOCC3)cc2C1	1.1%
COc1ccccc1C(=O)N1CCC2(CC1)NC(=O)c1ccccc1O2	7.8%
CNC(=O)[C@@H]1CN(C(=O)c2cc3cc(OC)ccc3[nH]2)C[C@H]1COC	-7.4%
CC1=C[C@@H](CNC(=O)c2cncnc2)[C@H](C(C)C)C[C@H]1CC(=O)N(C)Cc1ccccc1	-2.6%[70.6 µM]
CN(Cc1ccccc1)Cc1cn(C[C@H]2O[C@@H](CC(=O)N3CCCC3)[C@H](O)[C@@H]2O)nn1	5.2%[70.6 µM]
CCN(C1CCOCC1)C1CN(C(=O)c2nccn2C)C1	2.6%
Cc1ccc(CN2CC3(COCC2=O)CN(c2ccccc2)C3)cc1C	-16.4%[70.6 µM]
Cc1n[nH]c(C)c1Cc1ccc(C(=O)N2CCC(CCOc3ccc(F)cc3)C2)o1 (centres undefined)	15.8µM*
COc1ccc2nc3n(c2c1)[C@@H](CNCc1ccc(C#N)cc1)COC3	-15.4%[70.6 µM]
C=CCNC(=O)N1CCOC(CN(CC(C)C)C(=O)c2ccc(C)cc2)C1 (centres undefined)	-9.1%
CCOc1cc(=O)n2c(c1C(=O)Nc1cc(Cl)ccc1Cl)CCCC2	4.5%
CCc1ccc2nc(C)cc(C(=O)N3CCN(c4ccccc4)C(=O)C3)c2c1	9.3%
COc1ccc(C(=O)N[C@@H]2CCC[C@@H]2C(=O)N(C)C)cc1	5.0%
COc1cccc(Nc2ccnc(-c3nnc(C)n3C3CCCCC3)c2)c1	-25.1%[70.6 µM]
O=C(Nc1ccc2c(c1)CN(Cc1ccccc1F)C(=O)CO2)c1ccc(Cl)cc1	-26.1%
COc1ccc2[nH]c3c(c2c1)CCNC31CCN(C(=O)CNC(C)=O)CC1	10.1%
O=C(NCc1ccco1)Nc1cccc(-c2ccc(N3CCCC3)nn2)c1	-21.8%
COc1ccc(CNC(=O)c2nnn3c2CN(Cc2cccc(Cl)c2)C(=O)CC3)cc1OC	-9.8%
O=C(NCC1CCCN(C(=O)c2ccc3[nH]ccc3c2)C1)c1ccc(-c2ccccc2)cc1 (centres undefined)	11.2µM*
N#Cc1ccc(C(=O)N2CCCCCCNC(=O)[C@@H]3C[C@@H](c4nc(-c5cccnc5)no4)C[C@@H]32)cc1	3.0%
CCC(=O)N1CCN(c2nc3c(s2)CC(C(=O)NC2CCCCCC2)CC3)CC1 (centres undefined)	-20.4%
O=C(NC1CCN(C(=O)N2CC3CC(C2)[C@H]2CCCC(=O)N2C3)CC1)c1ccccc1 (some centres undefined)	-1.4%
CN1Cc2ccc(CN(C)C(=O)C3CCN(Cc4ccco4)CC3)cc2C1	5.1%
Cc1noc(C)c1CC(=O)N1CCC(c2noc(-c3cnccn3)n2)C1 (centres undefined)	1.7%
O=C(CCc1ccccc1)N1CCC(O)(c2csc(CN3CCc4ccccc4C3)n2)CC1	-11.6%
O=C(NC1CCCC1)c1ccc2c(c1)N(S(=O)(=O)c1ccccc1)CC2	-1.7%

4 compounds picked at random from those above, as already listed:
Structure	hNpr1 antagonist
COc1ccc(CNC(=O)c2nnn3c2CN(Cc2cccc(Cl)c2)C(=O)CC3)cc1OC	-9.8%
CCC(=O)N1CCN(c2nc3c(s2)CC(C(=O)NC2CCCCCC2)CC3)CC1 (centres undefined)	-20.4%
O=C(CCc1ccccc1)N1CCC(O)(c2csc(CN3CCc4ccccc4C3)n2)CC1	-11.6%
O=C(NC1CCCC1)c1ccc2c(c1)N(S(=O)(=O)c1ccccc1)CC2	-1.7%

(continued)
Structure	hNpr1 antagonist
CCN1C(=O)Cc2ccccc2C1C(=O)NCc1cccc(F)c1 (centres undefined)	-13.6%
CCc1ccc(NC(=O)N2CCCC(c3noc(COc4ccccc4)n3)C2)cc1 (centres undefined)	?
COCCNC(=O)[C@@H]1C[C@H](Oc2cccnc2)CN1C(=O)c1ccc(OC)cc1OC	7.7%
COc1ccccc1-c1ccc2ncc(Nc3ccccc3)n2n1	-9.5%[70.6 µM]
COc1ccc(C(=O)NCC(=O)N2CCCCCNC(=O)CC2c2ccccc2)cc1F (centres undefined)	3.9%
CCN1C(=O)CCc2cc(NC(=O)c3ccn(CC)n3)ccc21	0.9%
COc1ccc([C@H]2C[C@@H](O)[C@@H](O)[C@@H]2NS(=O)(=O)c2ccccc2)cc1	0.4%[70.6 µM]
COc1ccccc1CNC(=O)C1Cn2cccc2C(=O)N1Cc1cccnc1 (centres undefined)	1.5%
CCn1ncc(N2CCC(NC(=O)CC3CCCCC3)CC2)cc1=O	-0.1%
Cn1nccc1C(O)c1cc2n(n1)CCN(CC(=O)N1CCOCC1)C2 (centres undefined)	5.5%
O=C(NCCC1CCN(C(=O)Nc2ccc(F)cc2)CC1)C1CCCC1	-1.2%
C[S+](=O)([O-])c1ccc(-c2cc3c(cn2)CN(CCc2ccccc2)CCN3)cc1	-10.0%[70.6 µM]
C=C(C)CNC(=O)CC1COc2ccc(C(=O)NCCOC)cc2N1C (centres undefined)	1.7%
c1ccc(-c2cn3c(n2)CO[C@@H](CNCc2cccs2)C3)cc1	-20.3%[70.6 µM]
COc1ccc(-c2noc(-c3nc(Cc4ccccc4)no3)n2)cc1	0.3%
COC(=O)CO[C@@H]1CO[C@H]2[C@@H]1OC[C@@H]2NC(=S)Nc1cc(C)cc(C)c1	-8.9%[70.6 µM]
COc1cccc(CC(=O)N[C@@H]2CN(Cc3ccccn3)C[C@H]2CN(C)C)c1	-3.9%
COc1ccc(-c2cc(N3CCC(NC(=O)c4ccc(C)s4)CC3)n[nH]2)cc1	-4.3%
C=CCNC(=O)Cc1ccc(N(Cc2ccc(OC)cc2)C(=O)c2ccco2)cc1	-2.7%
COCC(=O)NCCc1noc(-c2cccnc2)n1	-2.0%

Part of the list above in a different format:
COc1ccc([C@H]2C[C@@H](O)[C@@H](O)[C@@H]2NS(=O)(=O)c2ccccc2)cc1
  hNpr1 antagonist = 0.4%[70.6 µM]

COc1ccccc1CNC(=O)C1Cn2cccc2C(=O)N1Cc1cccnc1 (centres undefined)
  hNpr1 antagonist = 1.5%

(more compounds)
Structure	hNpr1 antagonist
COc1ccc(NC(=O)Nc2cccc(-c3ccc(N4CCC(C)CC4)nn3)c2)cc1OC	3.16µM*
CC(=O)NCCC(=O)N1CCCCC1C(=O)Nc1ccc(-n2nc(C)cc2C)cc1 (centres undefined)	-11.0%
Cc1nc(NC(=O)Cn2nc3c(cc2=O)CCCC3)sc1C	0.8%
COc1ccccc1N1CCN(CC[C@H]2CN(C(=O)Nc3ccccc3)CC[C@H]2CC(=O)O)CC1	2.5%
Cn1nc(C2CCN(C(=O)[C@H]3CC(=O)NC(=O)N3)CC2)n(-c2ccccc2)c1=O	4.5%
Cn1cccc1C(=O)N1CCC(c2noc(COc3ccc(F)cc3)n2)CC1	?
CCn1c(CC2CCNCC2)nn(Cc2cc(C3CCCCC3)no2)c1=O	1.8%
CN(C)[C@@H]1CO[C@H](CNS(=O)(=O)c2ccccc2)[C@H]1O	-0.7%[70.6 µM]
CC[C@H]1CN(C(=O)C2CC2)CC[C@H]1CC(=O)NCc1cccnc1	-1.0%[70.6 µM]
O=C(c1ccoc1)N1CCCN(Cc2cn(-c3ccccc3)nn2)CC1	-3.9%

Later entries
Structure | hNpr1 antagonist
CC(=O)Nc1cccc(-c2cc3c(ccn3C)c(C(=O)NCc3cccnc3)n2)c1 | -21.1%[70.6 µM]
N#Cc1cccc(CN2CCn3nnc(-c4nc(-c5ccsc5)no4)c3C2=O)c1 | 7.7%
COCCC1(NC(=O)c2ccccc2)CCN(Cc2cn[nH]c2-c2cccs2)CC1 | -10.0%
CN(C)[S+](=O)([O-])c1ccc2c(c1)OCCN(Cc1ccc(C(F)(F)F)cc1)C2 | 17.8µM*
O=C1NCCOCCCN(C(=O)CC2CCCC2)[C@H]2CCCC[C@@H]12 | 1.1%
COc1ccccc1-c1cnc(Nc2cccc(N[S+](C)(=O)[O-])c2)c2c1CCO2 | 31.6µM*
COc1ncccc1-c1ccnc(-c2nnc(C)n2C2CCCCC2)c1 | 3.0%[70.6 µM]
C=CCN(CC=C)C(=O)C1(Oc2cccnc2C)CCNCC1 | 6.2%
COc1ccc(C(=O)N2CCCC(c3noc(COc4ccccc4)n3)C2)cc1OC (centres undefined) | 0.0%
CCOCCN1C(=O)COC[C@@H]1[C@H](O)c1ccc(NC(=O)C2CC2)cc1 | 0.3%[70.6 µM]
O=S(=O)(Cc1noc([C@@H]2C[C@@H](O)CN2Cc2ncc[nH]2)n1)c1ccc(F)cc1 | -1.0%[70.6 µM]
O=C(Nc1ccc(C(F)(F)F)cc1)C1=NO[C@@H]2CN(CCc3ccccc3)C[C@H]12 | -18.7%[70.6 µM]
O=C(Cn1ccn2nc(-c3ccc(F)cc3)c(CO)c2c1=O)Nc1cc(F)ccc1Cl | 1.8%
COc1ccc(CC(=O)NC2CCN(c3cc(-c4ccc(Cl)cc4)[nH]n3)C2)cc1 (centres undefined) | -30.5%
O=C(Nc1ccc2c(N3CCOCC3)ncnc2c1)c1cccc(Cl)c1 | -2.8%
Cc1cc2cc(C(=O)N(C)Cc3ccc4nsnc4c3)ccc2o1 | 9.6%
CCN1c2cc(C(=O)Nc3ccc(F)c(F)c3)ccc2C(=O)N2CCCC21 (centres undefined) | -8.5%
COc1ccc(-n2nc(C3CCN(C(=O)c4ccccc4C)CC3)[nH]c2=O)cc1 | -2.6%
Cc1cccc(NC(=O)Cn2c(N3CCC(C)CC3)nc(C)cc2=O)c1 | ?
CNC(=O)N1CCC(C2CCN(C(=O)Cn3cccn3)C2)CC1 (centres undefined) | 5.7%
Cc1nc2c(NC3CCN(C(=O)c4cnccn4)CC3)cccn2n1 | 3.0%
O=C(CC[C@H]1NC(=O)c2ccccc2NC1=O)Nc1ncc[nH]1 | 1.5%
CCc1nc2c(c(-c3ccc(Cl)cc3)n1)CCN([S+](=O)([O-])c1ccccc1)CC2 | -16.2%
CN(Cc1ccnn1C)C1CCCc2ccccc21 (centres undefined) | 0.0%[70.6 µM]
O=C1NC[C@@H](CCC(=O)N2CCCC2)N2C[C@@H](NCc3cccc(Cl)c3)C[C@@H]12 | 2.4%[70.6 µM]
CNc1ccc(C(=O)N2CCC(CCn3cccn3)CC2)cn1 | 5.7%
CCC1=NS(=O)(=O)c2cc(NC(=O)C3CC3)ccc2N1CCOC | -1.1%
CN1CC[C@H]2CN(S(=O)(=O)c3ccc(NC(N)=O)cc3)C[C@H]21 | 8.6%
Fc1cc(F)cc(CNc2ncncc2-c2nc(-c3ccccc3)no2)c1 | 1.9%
CCC(N)(CC)c1cn(CC2CCCN(S(C)(=O)=O)C2)nn1 (centres undefined) | -3.4%
CN1CCN(CCCOc2ccccc2CN2CCc3nc[nH]c3C2)CC1 | 1.8%
COc1ccccc1N1CCN([C@H]2[C@@H]3OC[C@@H](O3)[C@@H](NCc3cnc4ccccc4c3)[C@@H]2O)CC1 | 1.6%
COCCc1noc(C2CN(C(=O)C3CCOC3)C2)n1 (centres undefined) | 6.8%
COc1cc2cc(CN3CCC[C@@H]3CO)c(-c3cccc(Cl)c3)nc2cc1OC | 0.6%
COCCC1(NS(C)(=O)=O)CCN(S(=O)(=O)c2ccc(C#N)cc2)CC1 | -0.4%
O=C(Nc1ccc([C@@H](O)[C@H]2COCC(=O)N2CC2CC2)cc1)c1ccco1 | -0.9%[70.6 µM]
COc1ccc(C(=O)N2C[C@@H](CO)[C@H](c3nc(C4CC4)no3)C2)cc1 | -8.5%
Cc1cccc(NC(=O)C2(C)CCCCC(=O)N2)c1 (centres undefined) | ?
Cc1nc(-c2c3n(c(=O)n(CC(=O)Nc4cccc(F)c4)c2=O)CCCC3)no1 | 3.8%
O=C(N[C@H]1C[C@@H](CO)N(Cc2cccs2)C1)c1cccnc1 | 2.1%
Cc1cccc(Cl)c1NC(=O)Cn1cccc1-c1nc(-c2ccc(F)cc2)no1 | -4.9%
COc1ccc(-c2noc(C(=O)O)c2[C@@H](C)NS(=O)(=O)CC(C)C)cc1 | -1.3%[70.6 µM]
COc1cccc(CNC(=O)c2ccc3c(c2)N(C)C2CCCCN2C3=O)c1OC (centres undefined) | -13.8%
Cc1nc(CN2C[C@H](C(=O)NCCOc3ccccc3)C[C@@H]2c2ccc(F)cc2)cs1 | -18.3%[70.6 µM]
COc1ccc(-c2cc(N3CCCC(NC(=O)CCc4ccccc4OC)C3)n[nH]2)cc1 (centres undefined) | -4.4%
COc1ccccc1OCCC1CCN(C(=O)NCC(C)C)C1 (centres undefined) | -9.8%
CC(c1ccc(F)cc1)N1Cc2cc(NC(=O)c3cccs3)ccc2OCC1=O (centres undefined) | ?
CC(C)C(=O)N1CCC2(CC1)NCCc1c2[nH]c2ccccc12 | 7.8%
CCc1nc(-c2c3n(c(=O)n(Cc4ccc(F)c(F)c4)c2=O)CCCC3)no1 | -1.7%
O=C(CN1C(=O)COc2ccc(C(=O)COc3ccc(F)cc3F)cc21)Nc1ccc(F)cc1 | -0.9%
CC1CCN(CC(=O)N2CCC(c3nc4ccccc4o3)CC2)C1=O (centres undefined) | -3.1%
CCN(C1CCOCC1)C1CN(C(=O)C2CCCCC2)C1 | 7.7%
